Assay outcomes as filed in PubChem.
Sa ugtP lethal: growth inhibition of S. aureus ugtP deletion strain; S. aureus RN4220 ugtP deletion, OD600 growth, 16 h; some inactives read as strong as hits; growth inhibition, % (test concentration not listed); hit rate 0.54% among 330,000; AID 1259309;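 active means z-score under -3 and OD600 up to 0.15 on both plates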;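 further: plate controls were untreated wells for no effect and antibiotic for full effect; wells of about 80 µL received 100 nL stock; the first replicate is given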
Mtb hypoxia rep: Mtb hypoxia fluorescent reporter inhibition. AID 1159583. fluorescence inhibition, % (concentration not given with the values). M. tuberculosis hypoxia-regulated fluorescent reporter, fluorescence. hit rate 0.1% among 300,000;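 active means 35 to 45% if threefold the growth effect, above 45% if 1.5-fold the growth effect; inactive means the rest, general growth blockers included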;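 further: wells of about 50 µL received 100 nL stock; 0% = vehicle wells and 100% = reference inhibitor wells; whole bacteria with a GFP reporter of the hypoxia response; strong numbers were not always called active; many hits fall short of the cut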
Sa RN4220 lethal: kills Staphylococcus aureus RN4220. S. aureus RN4220 growth, OD600, 16 h. inhibition, % (test concentration not listed). hit rate 0.33% among 330,000. AID 1259311;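 active means z-score of -3 or lower and OD600 up to 0.18 on both plates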;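 further: plate controls were untreated cells for no effect and reference antibiotic for full effect; stock transfer was 100 nL into about 80 µL; one replicate is shown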
BJeLR viability: kills HRASV12-expressing BJeLR cells; inhibition, % (test concentration not listed); AID 1554; BJeLR (HRASV12) viability, CellTiter-Glo ATP luminescence, 48 h; reference of the scale not given here; hit rate 0.17% among 300,000;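 active means replicate mean above 50%; inconclusive means above 50% but judged a plate artefact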;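 further: 50 nL library stock added to about 25 µL; numbers are from one replicate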
PrP 5UTR inh: suppresses PrP 5' UTR mRNA reporter expression | inhibition, % (concentration not given with the values) | hit rate 0.35% among 340,000 | cell-based PrP 5' UTR mRNA reporter, plate reader;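 active means every replicate at 50% or more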;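 further: 0 = median of the neutral control wells; tested in H4 reporter cells; numbers are from one replicate; inactives centre near -14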
Autofluor counter: compound fluorescence in toxin protease inhibitor counterscreen; compound autofluorescence counterscreen, microsphere flow cytometry; stronger effect = higher value; fluorescence intensity (test concentration not listed); hit rate 3.1% among 360,000; AID 624483;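 active means at least 3 SD above the mean of all compounds, about 16000 in these data; inconclusive means too few beads counted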;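 further: 100 nL of 1 mM stock went into each well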
Mtb hypoxia rep growth: second read-out of Mtb hypoxia rep, no call of its own (marks repeat the call); growth inhibition, %; measured here: M. tuberculosis growth (absorbance);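 0% = vehicle and 100% = reference antibiotic; read after six days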
* marks the source's active call; other numbers are inactive results; ? = inconclusive; . = no result given.

SMILES	Sa ugtP lethal	Mtb hypoxia rep	Mtb hypoxia rep growth	Sa RN4220 lethal	BJeLR viability	PrP 5UTR inh	Autofluor counter
COc1ccc(NS(=O)(=O)c2c(C)n(C)c(=O)n(C)c2=O)cc1OC	-3	1	10	-9.8	-1	-11	6002
O=C(NCCN1CCN(c2ccccc2)CC1)c1ccc2c(c1)[nH]c(=S)n1c3ccccc3nc21	11	8	5	-9.7	-12	6	3861
CCNc1nc(SCc2ccccc2)nc(N2CCOCC2)n1	8	.	.	-4.6	-3	4	4651
Cc1cnnc2c1-c1no[n+]([O-])c1CC2	10	6	0	2.4	-3	-25	7958
O=C(CSc1c2c(nc3cc(Cl)ccc13)CCCC2)NCc1ccco1	1	1	5	-0.2	-2	-17	3548
COc1ccc(/C=N\NC(=O)c2nn(C)cc2Cl)cc1CN1CCOCC1	.	.	.	.	-6	-18	2093
Cc1cc(C)c2nc(N3CCCC3)c(C#N)cc2c1	9	8	1	4.6	-9	-18	3364
COCC(C)NC(=O)c1cc(S(=O)(=O)N2CCCCC2)ccc1N1CCOCC1 (stereo not given)	9	4	-2	5.3	3	-1	4403
CCCCn1c(N)c(N(Cc2ccccc2OC)C(=O)C(C)Oc2ccc(Br)cc2)c(=O)[nH]c1=O (stereo not given)	2	-3	-6	3.2	.	-20	3835
CC(=NNC(=O)c1ccc(C)s1)c1cccc(NC(=O)c2ccoc2C)c1	19	-2	1	-1.3	.	.	.
COC(=O)c1cc(OC)c(OC)cc1NC(=O)Nc1ccccc1OC	-11	15	6	8.9	-2	-29	23051*
COc1ccc(-n2c(=S)[nH]c3cc(C(=O)N(C)Cc4ccccc4)ccc3c2=O)cc1	5	-5	3	-1.4	-1	-8	4902
COc1ccc(C(CCNCc2ccccc2F)c2ccc(F)cc2)cc1 (stereo not given)	-6	6	-5	-4.5	-5	-36	1999
CCOc1cccc(C=NN2C(C)CCCC2C)c1O (stereo not given)	5	-2	-1	0.6	.	.	.
COc1ccc(C(=O)N2N=C(c3cccs3)CC2c2ccccc2O)cc1 (stereo not given)	-6	4	2	1.2	11	0	4653
CS(=O)(=O)N1CCN(c2ccc(NC(=O)c3ccc(Br)o3)cc2)CC1	8	.	.	1.0	-2	-69	3787
Nn1cnn(Cc2ccccc2)c1=S	2	.	.	0.9	.	-3	4391
COc1ccccc1OCCN1C(=O)S/C(=C\c2ccco2)C1=O	6	.	.	-1.2	-7	-20	4703
COc1ccccc1/C=C/C=N/n1c(-c2ccncc2)n[nH]c1=S	.	.	.	.	-6	6	2589
COc1ccc(CCNC(=O)CNC(=O)c2ccccc2Br)cc1OC	16	11	9	-0.4	-15	-19	3549
Cc1ccc(C(C)C)cc1S(=O)(=O)Nc1ccncc1	1	6	7	3.2	7	-14	3090
Cc1ccc(SCC(=O)Nc2ccc3c(c2)OCCO3)cc1	2	2	4	-0.9	2	-115	2451
COc1ccc(O)c(C(=O)c2cnc3c(c2)c(=O)[nH]c(=O)n3C)c1	0	16	8	5.6	5	3	2464
Cc1cc(=O)[nH]c2ccc(Cl)cc12	10	.	.	0.9	0	-8	4263
CN(C)S(=O)(=O)c1cccc(NC(=O)CNCC2CCCCC2)c1	4	18	8	3.6	3	-19	4696
COc1ccc(NC(=S)N(Cc2ccc(Cl)cc2)Cc2ccc(C(=O)O)cc2)cc1Cl	19	2	5	-4.5	-3	-24	4250
Cc1ccc(O)c(C(=O)c2cnc3c(c2)COc2ccccc2-3)c1	16	.	.	5.9	1	-13	4820
O=C(CNC(=O)N1CC(=O)Nc2ccccc21)NCc1ccccc1	2	15	3	2.9	0	-10	6434
Cc1cc(C(=O)N/N=C/c2cccc(OC(=O)c3ccco3)c2)n[nH]1	.	.	.	.	12	-13	5659
O=C(COc1ccc2ccccc2c1)Nc1cccc(C(=O)Nc2ccccc2C(=O)O)c1	19	5	-1	30	-9	-23	2451
Cc1ccc(S(=O)(=O)N2CC3CCCN3c3ccc(C(F)(F)F)cc32)cc1 (stereo not given)	13	7	3	3.7	3	-16	3319
CCOC(=O)c1c(C)[nH]c(N=Nc2cccc(C)c2)c1C	77	2	-5	3.2	-12	-134	8431
Cc1c(C)n2c(SCC(=O)Nc3ccc4c(c3)OCCO4)nnc2[nH]c1=O	7	8	9	3.8	-6	-16	6224
COc1ccc(-n2c(Cc3cccn3C)nnc2SCC(=O)Nc2ccc(C)cc2)cc1	3	.	.	-0.4	-12	-10	5964
Cc1ccc(NC(=O)CNC(=O)c2ccc(Br)o2)nc1	.	.	.	.	12	-3	?
COC(=O)c1ccc(CNC(=O)c2ccc(S(=O)(=O)N3CCCC(C)C3)cc2)cc1 (stereo not given)	-4	2	1	3.7	.	-15	3957
CCc1cccc2c1NC(=O)C2(O)N1CCCC(C)C1 (stereo not given)	9	9	7	-0.2	4	-12	3340
N#Cc1ccc(NC(=O)c2sc3cc(C(F)(F)F)cnc3c2-c2cccs2)cc1	-16	.	.	10.0	0	-6	4319
S=C(Nc1cccc2ccccc12)NN1CCCCCC1	10	4	-3	-2.9	.	-1	3889
Cn1c(COc2ccccc2)nnc1SCC(=O)NNC(=O)C1CCCCC1	-3	-3	1	-1.9	6	-3	4383
O=C(/C=C/c1ccc(S(=O)(=O)N2CCOCC2)cc1)NCCCn1ccnc1	-6	-6	7	-0.3	-4	-7	4713
O=C1NC2(CCCCC2)C(=O)N1/N=C/c1ccc(O)cc1O	.	.	.	.	-5	-15	4419
Cc1cc(Nc2cc(C(=O)O)ccc2C)n2ncnc2n1	2	.	.	0.0	1	-21	6352
O=C(NC(=O)N1CCN(c2cccc(Cl)c2)CC1)c1ccc(Cl)cc1	-15	-14	1	-4.6	-6	-11	?
COc1ccccc1NC(=O)CSc1nnnn1-c1ccccc1F	6	3	1	1.5	-8	-18	3339

Exported with two lines to a compound: six of the compounds above.
Values in the order: Sa ugtP lethal	Mtb hypoxia rep	Mtb hypoxia rep growth	Sa RN4220 lethal	BJeLR viability	PrP 5UTR inh	Autofluor counter
Cc1c(C)n2c(SCC(=O)Nc3ccc4c(c3)OCCO4)nnc2[nH]c1=O
    7	8	9	3.8	-6	-16	6224
COc1ccc(-n2c(Cc3cccn3C)nnc2SCC(=O)Nc2ccc(C)cc2)cc1
    3	.	.	-0.4	-12	-10	5964
Cc1ccc(NC(=O)CNC(=O)c2ccc(Br)o2)nc1
    .	.	.	.	12	-3	?
COC(=O)c1ccc(CNC(=O)c2ccc(S(=O)(=O)N3CCCC(C)C3)cc2)cc1 (stereo not given)
    -4	2	1	3.7	.	-15	3957
CCc1cccc2c1NC(=O)C2(O)N1CCCC(C)C1 (stereo not given)
    9	9	7	-0.2	4	-12	3340
N#Cc1ccc(NC(=O)c2sc3cc(C(F)(F)F)cnc3c2-c2cccs2)cc1
    -16	.	.	10.0	0	-6	4319

Later entries:
SMILES	Sa ugtP lethal	Mtb hypoxia rep	Mtb hypoxia rep growth	Sa RN4220 lethal	BJeLR viability	PrP 5UTR inh	Autofluor counter
CCc1ccc(C(=O)Nn2c(C)nc3ccccc3c2=O)cc1	-2	7	-7	0.4	1	10	3055
CN(C)CCN1C(=O)C(=O)/C(=C(/O)c2ccc(OCc3ccccc3)cc2)C1c1ccncc1 (stereo not given)	.	.	.	.	-2	-9	3072
COc1ccc(C(=O)NC(C)c2nc3ccccc3n2C)cc1OC (stereo not given)	11	5	-2	2.2	-1	-33	9702
c1ccc(-c2nnc(SCC3CCCCO3)nc2-c2ccccc2)cc1 (stereo not given)	94*	10	-2	2.8	18	2	3576
CCC(C)NC(=O)C1CCCN(C(=O)NC2CCCCC2)C1 (stereo not given)	-1	7	10	-1.8	4	-21	3196
CCOC(=O)c1c(NC(=O)Cc2ccccc2)sc2c1CCN(CC)C2	-1	1	-2	-4.3	11	-4	6220
COc1ccc(NC(=S)N(CCC(C)C)C2CCN(C(C)=O)CC2)cc1	4	-3	4	5.4	-4	-29	2862
CCc1cc2c(-c3ccccc3)cc(=O)oc2cc1OC(C)C(=O)O (stereo not given)	11	3	-3	0.7	-5	-8	3711
CCOC(=O)C1CCCN(C(=S)Nc2ccc(OC)cc2)C1 (stereo not given)	7	15	11	2.0	3	-18	4180
Cn1c(-c2ccccc2)c(C=O)c2ccccc21	3	20	9	1.2	7	-35	4523
CCS(=O)(=O)N1CCC(C(=O)Nc2ccccc2OC)CC1	9	2	-2	3.8	-1	-28	3202
O=C(NC1CCCCC1)N1CCC(c2nc3ccc(Cl)cc3[nH]2)CC1	0	6	1	0.7	-5	-11	16224*
O=C(NCCc1nnc2ccc(SCC(=O)N3CCOCC3)nn12)c1ccccc1	3	-6	0	1.6	3	-17	6778
N=C1C(=O)OCC1c1ccccc1NC(=O)CN1CCCCC1 (stereo not given)	-4	4	-3	0.6	5	-7	2425
COc1ncccc1C(=O)NC1CCCc2c1cnn2-c1cc(C)cc(C)c1 (stereo not given)	5	8	12	4.5	-1	-1	6100
O=C(NC(=S)N1CCN(c2ccccn2)CC1)c1ccco1	3	5	1	0.2	-3	-32	2595
O=C(Oc1ccc([N+](=O)[O-])cc1)c1cncc(Br)c1	2	-2	3	-1.3	6	-20	2118
CN(CC(=O)OCC(=O)Nc1ccccc1)S(=O)(=O)c1ccc(Cl)cc1	7	.	.	2.5	0	-14	2891
CN(C)CP(=O)(O)CN(C)C=O	-3	12	11	-5.8	8	-12	2666
O=C(CN1c2cccc3cccc(c23)S1(=O)=O)Nc1ccccc1Br	6	8	12	15	.	-22	3841
CCOc1ccccc1CN1CCN(C/C=C/c2ccc(OC)cc2)CC1CCO (stereo not given)	4	12	2	3.4	-9	-24	4417
CC(=O)Nc1ccc(NC(=O)CS(=O)(=O)c2cn(CC(=O)N3CCCC3)c3ccccc23)cc1	4	0	5	1.8	6	-13	5621
c1cncc(CNC2CCCCC2)c1	3	2	11	-0.2	-7	-11	3713
Cc1ccccc1OCC(=O)NNC(=O)c1ccoc1C	5	12	-2	5.5	.	-19	3754
COc1cccc(CNc2ccc(F)c(Cl)c2)c1	1	14	7	4.3	-8	-28	10533
CCOC(=O)c1ccc(CSc2nncn2N)o1	-2	9	1	-2.5	-14	-14	3358
C=C(C)COc1ccc2c3c(c(=O)oc2c1OCC(=C)C)CCC3	20	13	-4	3.1	-4	-13	8451
COc1cc([N+](=O)[O-])ccc1NC(=S)N1CCOCC1	4	-5	11	2.3	-5	-14	5302
CCOc1ccc(S(=O)(=O)NCCC(=O)NCC(C)(C)N2CCOCC2)cc1	2	5	-3	0.1	3	-12	?
COc1cccc(CNC(=O)CCSCc2ccccc2F)c1	-1	-3	1	-2.0	1	-6	4482
COc1ccc(CCN2C(=O)CC(NCc3ccc4c(c3)OCO4)C2=O)cc1OC (stereo not given)	-1	.	.	3.2	-6	-19	5177
CCCCc1cc(=O)oc2cc(O)cc(O)c12	-2	10	-2	5.2	0	-17	4586
C=CCn1c(=N)n(CC(=O)OCC)c2ccccc21	0	.	.	0.8	0	7	2520
O=C(COC(=O)CCNS(=O)(=O)c1ccccc1)NC(=O)c1ccccc1	2	8	1	4.1	-3	-17	6469
COc1cc(C=NNc2nc3ccccc3[nH]2)ccc1O	-12	-2	0	0.1	.	.	.
CN1CCC(N(C)c2nc(-c3ccc([N+](=O)[O-])cc3)nc3ccccc23)CC1	.	.	.	.	6	-6	2730
COc1cc(C(=O)N[C@H](C(=O)NC(C)C23CC4CC(CC(C4)C2)C3)C(C)C)cc(OC)c1OC (stereo not given in full)	0	.	.	-3.3	-1	-6	4245
CC(C)Oc1ccc(CCC(=O)NNC(=S)Nc2ccccc2)cc1	9	-1	-10	3.2	-6	-4	5313
O=C(C=Cc1ccc(O)cc1)OCc1occc(=O)c1OC1OC(CO)C(O)C(O)C1O (stereo not given)	6	18	6	6.9	.	.	.
CCC(=O)Nc1sc2c(c1C(N)=O)CCC2	7	5	3	8.9	9	-7	23030*
CCN1CCN(CC2CC3C=CC2C3)CC1 (stereo not given)	-8	3	13	2.2	2	-8	2050
COc1ccc(C2=NOC(C(=O)NCc3ccccn3)C2)cc1 (stereo not given)	5	7	5	5.9	-7	-25	3906
COc1ccccc1N1CC(C(=O)NCC2COc3ccccc3O2)CC1=O (stereo not given)	4	5	8	3.6	.	-5	3509
